# Screening results: PubChem, National Center for Advancing Translational Sciences (NCATS)
# Anthrax LT inh: qHTS Assay for Anthrax Lethal Toxin Internalization. Cells, anthrax lethal toxin internalization, FRET ratio (460/530). AID 912, 2007. hit rate 0.67% among 70,000. Potency, µM (top dose mostly 40 µM), inactives show top-dose activity change, negative = inhibition, hits mostly inhibitors; active = well fitted falling ratio curve with the 530 nm signal flat; inconclusive = other ratio curves, or a change in one channel alone; inactive = flat curves in the ratio and both channels; the % refers to the ratio; also: % is scaled to controls: 0 for no effect and ±100 for the full control effect; nearly all actives have a fitted effect of over 50% in size; tested in ME-180 cells; beta-lactamase reporter
# SmPrx2 inh: Schistosoma Mansoni Peroxiredoxins (Prx2) | Schistosoma mansoni peroxiredoxin 2 (Prx2) | S. mansoni Prx2 activity coupled to TGR/GSH (TGR is thioredoxin glutathione reductase), NADPH fluorescence loss, qHTS; some inactives read as strong as hits | hit rate 0.07% among 65,000 | Potency, µM; active means full or partial inhibition curve with a strong effect at the top dose; inconclusive means weaker partial or single-point curve; inactive means no accepted curve; also: series up to 57 µM; many of its hits are not listed in these tables
#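 Enzyme mix: 100 uM NADPH, 25 nM TGR, 700 uM GSH, 50 nM Prx2 in 100 mM phosphate pH 7.4, 10 mM EDTA, 0.01% Tween-20. 15 min RT with compound; NADPH/GSH added, H2O2 starts reaction; NADPH fluorescence read 8 min.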
# Starred values were filed as active, the others as inactive; ? = inconclusive; . = no result given; & = joins results of further samples; [ ] = another dose, or the depositor's remark. Potency is read from the fitted curve at half-maximal effect. Not all compounds are listed; count on the stated rates, not on these rows.
SMILES,Anthrax LT inh,SmPrx2 inh
Cc1nc(N2CCN(C(c3ccccc3)c3ccccc3)CC2)[nH]c(=O)c1C,-4%,>57
CC1CN(CC(O)COc2ccc(C(C)C)cc2)CC(C)O1 (centres undefined),-1%,>57
O=C(Nc1ccccc1)C1=C(O)CC(c2ccoc2)CC1=Nc1ccccc1 (centres undefined),?,.
O=C(O)[C@@H]1[C@@H](C(=O)Nc2ccccc2)[C@@H]2C=C[C@@H]1O2,-4%[8 µM],>57
COc1ccc(NC(=O)N2CCC(NC(=O)c3ccco3)CC2)cc1,4%,>57
Cc1cc(Br)ccc1NC(=O)CNC(=O)CSc1n[nH]c(N)n1,-12%,>57
COC(=O)c1ccccc1NC(=O)CSc1nnc(Cc2ccc(Cl)cc2)o1,3%,>57
Cc1ccc(-n2cc3c(=O)n(C)c(=O)n(C)c3c2)cc1C,1%,>57
CCC(=O)N1CCc2cc(Br)cc(S(=O)(=O)C3(C(=O)OC)CC3)c21,-9%,>57
CCOC(=O)c1[nH]c2ccccc2c1NC(=O)C1CCCCC1,7%,>57
CCCN(c1ccc(OCC)cc1)S(=O)(=O)c1ccc2c(c1)CCN2C(=O)CCC(=O)O,2%,>57
O=C(NCC1CCCO1)C1CCN(C(=O)c2ccc(Cl)cc2)CC1 (centres undefined),1%,>57

# Ordered by SMILES length (largest number first): 5 of the compounds above
SMILES,Anthrax LT inh,SmPrx2 inh
CCCN(c1ccc(OCC)cc1)S(=O)(=O)c1ccc2c(c1)CCN2C(=O)CCC(=O)O,2%,>57
O=C(O)[C@@H]1[C@@H](C(=O)Nc2ccccc2)[C@@H]2C=C[C@@H]1O2,-4%[8 µM],>57
CCC(=O)N1CCc2cc(Br)cc(S(=O)(=O)C3(C(=O)OC)CC3)c21,-9%,>57
Cc1nc(N2CCN(C(c3ccccc3)c3ccccc3)CC2)[nH]c(=O)c1C,-4%,>57
Cc1ccc(-n2cc3c(=O)n(C)c(=O)n(C)c3c2)cc1C,1%,>57

# Following part.
SMILES,Anthrax LT inh,SmPrx2 inh
CNC(=O)C1C2C=CC3(O2)C1C(=O)N(CCOC)C3C(=O)NCc1ccc(OC)cc1 (centres undefined),?,>57
CC(=O)N(CC1CCCO1)c1nnc(-c2ccccn2)s1 (centres undefined),5%,>57
CCOc1ccc2nc(NCCO)[nH]c2c1,-4%,>57
CCN1C(=O)[C@H]2[C@H]3[C@H](O)[C@H](O)C/C(=N/OC[C@@H](O)COCc4ccco4)[C@H]3CC[C@@H]2C1=O,-6%[8 µM],.
Nc1nc(CSc2ncn(-c3ccccc3)n2)cs1,12%,>57
CC(NC(=O)c1ccccc1)C(=O)NC1=NCCS1 (centres undefined),3%,>57
Cc1cc(C)c2c(CC(=O)N(CCC#N)Cc3cccnc3)coc2c1,?,>57
CN1CCc2ccccc2[C@@H]1Cc1ccccc1NC(=O)c1sc2ccccc2c1Cl,-22%[8 µM],>57
COc1cc(C(=O)N2CCN(c3ncnc4sc(C)c(C)c34)CC2)cc(OC)c1OC,12%,>57
N=c1c[n+](N2CCOCC2)[n-]o1,0%,>57
O=C(COC(=O)c1ccco1)Nc1ccc2c(c1)OCCO2,-4%,>57
CN1CCN(C(=O)c2cc3nc(-c4ccc(Cl)cc4)cc(C(F)(F)F)n3n2)CC1,?,.
CC(C)CN1CC[C@@]2(CCCN(C(=O)c3cccc(F)c3)C2)C1,?,>57
S=C(S)N1CCCC1,?,>57&>57
CC(O)CCl (centres undefined),-9%,.
COc1cccc(NC(=O)CSc2nncn2N)c1,-4%,>57
Cc1cc(NC(=O)CSc2nnc(-c3ccncc3)n2N)ccc1Br,-12%,>57
O=C(Nc1ccc(N2CCN(C(=O)c3ccc(Cl)cc3)CC2)cc1)c1ccc(Br)o1,?,>57
CCCC(=O)Nc1ccccc1-c1nnn(CC(=O)Nc2ccc(OC)cc2)n1,-2%,>57
Cc1c(C(=O)O)c(-c2ccccc2)nn1-c1ccccc1,-3%,>57
CCOC(=O)c1[nH]c(C)c(C(=O)OCC(=O)N2CCCCC2C)c1C (centres undefined),-9%,>57
Cc1cccn2cc(CCNS(=O)(=O)c3ccc4c(c3)OCCO4)nc12,11%,>57
COc1ccc(-n2cnc3c(cnn3CCC#N)c2=N)cc1,5%,>57
COC(=O)CS(=O)(=O)c1cc(Br)cc2c1N(C(C)=O)CC2,-4%,>57
FC(F)(F)/C(=N\P(=S)(N1CCOCC1)N1CCOCC1)N1CCOCC1,-4%,>57
Cc1c(NC(=O)Nc2ccc(Cl)c(Cl)c2)c(=O)n(-c2ccccc2)n1C,?,.
CC12CN3CC(c4ccccc4)(CN(C1)C31CCCCC1)C2=O,14%,>57
O=C1c2ccccc2NC(c2ccc(F)cc2)N1Cc1ccco1 (centres undefined),-3%,>57
C/C(NC(=O)c1ccccc1)=C1/C(=O)CC2C1C2(C)C (centres undefined),-7%,.
COC(=O)[C@@H]1[C@@H]2C[C@H]3c4[nH]c5cc(OC)ccc5c4CCN3C[C@@H]2C[C@H](OC(=O)/C=C\c2cc(OC)c(OC)c(OC)c2)[C@H]1OC,-1%[3.58 µM],>57
CC12CCC(C(=O)Nc3ccc4c(c3)OCCO4)(OC1=O)C2(C)C (centres undefined),18%,.
COc1ccc(-n2nc(C(=O)Nc3ccc4c(c3)OCO4)c3c4ccccc4n(C)c3c2=O)cc1,2%,>57
CC(=O)OC[C@@H]1O[C@H](C/C=N\O[C@@H](C)c2cn([C@H](CO)Cc3ccccc3)nn2)C=C[C@@H]1OC(C)=O,1%[1.6 µM],.
Cc1ccccc1-c1cncnc1NCc1ccccc1,-1%,>57
CN1C=CC=C/C1=C(\C#N)c1nc2ccccc2[nH]1,-4%,.
COCCN(C(=O)Cn1nnc2ccccc21)C(C(=O)NC1CCCC1)c1cccc(OC)c1OC (centres undefined),8%,>57
COc1ccc2nc(NC(=O)CSc3nc4cccnc4n3C)sc2c1,?,>57
COc1ccc(-c2nc3cnc(N4CCOCC4)nc3n(-c3ccc(OC)cc3)c2=O)cc1,?,>57
CCOC(=O)NC(C(F)(F)F)(C(F)(F)F)P(=O)(c1ccccc1)c1ccccc1,-11%,>57
Cc1cccc2nc(C(F)(F)F)nc(=O)n12,-13%,>57
Cc1ccc(-n2ncc3c(=O)[nH]c(SC(C)C)nc32)cc1,-6%,>57
CCCCN(CCCC)S(=O)(=O)c1ccc(C(=O)Nc2nnc(CSC)o2)cc1,3%,>57
COc1ccc(S(=O)(=O)N(C)CC(=O)Nc2ccc3c(c2)OCCO3)cc1OC,6%,>57
Cc1ccc(O)c(-c2cc(C(F)(F)C(F)F)[nH]n2)c1,?,>57
COc1ccc(C(=O)Oc2c(CN3CCOCC3)cc(Cl)c3cccnc23)cc1,-14%,>57
COC(=O)c1ccc(NC(=O)CN2C(=O)CCC2=O)cc1,5%,>57
CCOC(=O)N1CCC(NS(=O)(=O)c2cc3c(cc2Cl)NC(=O)CO3)CC1,17%,>57
CCC(=O)c1ccc(OCC(=O)Nc2nn3cnnc3s2)cc1,?,>57

# Quoted at random: 7 records from the list
SMILES,Anthrax LT inh,SmPrx2 inh
CCOC(=O)NC(C(F)(F)F)(C(F)(F)F)P(=O)(c1ccccc1)c1ccccc1,-11%,>57
Cc1cccc2nc(C(F)(F)F)nc(=O)n12,-13%,>57
CCOC(=O)N1CCC(NS(=O)(=O)c2cc3c(cc2Cl)NC(=O)CO3)CC1,17%,>57
CCCCN(CCCC)S(=O)(=O)c1ccc(C(=O)Nc2nnc(CSC)o2)cc1,3%,>57
Cc1ccc(-n2ncc3c(=O)[nH]c(SC(C)C)nc32)cc1,-6%,>57
COc1ccc(S(=O)(=O)N(C)CC(=O)Nc2ccc3c(c2)OCCO3)cc1OC,6%,>57
CCC(=O)c1ccc(OCC(=O)Nc2nn3cnnc3s2)cc1,?,>57

# Additional structures follow:
SMILES,Anthrax LT inh,SmPrx2 inh
O=C1CSc2ccc(C(=O)N3CCN(c4ccccn4)CC3)cc2N1,?,>57
COC(=O)C1=CN(C)C=C(C(=O)OC)C1c1ccc(Cl)cc1Cl,?,>57
COc1ccc(C2C(C(=O)NCCN(C)C)c3cc(OC)c(OC)cc3C(=O)N2C)cc1OC (centres undefined),-10%,>57
CCOC(=O)c1c(N)n[nH]c1-c1ccc(OC)cc1,-9%,>57
CC1=C(C(=O)N(C)C)C(c2cccc(Cl)c2)NC(=O)N1 (centres undefined),-4%,>57
c1ccc(-n2c(Sc3cnccn3)nnc2-c2cccs2)cc1,-11%,>57
CCOC(=O)CSc1nnc(CSc2nc3ccccc3s2)n1C,-4%,>57
COc1cccc(N2C(=O)C3CCCN3C2c2ccc(Cl)cc2)c1 (centres undefined),-18%,>57
CO[C@H]1COC(=O)C/C=C\[C@H](C)COC(=O)[C@@H](OCc2ccccc2)/C=C\[C@@H]1C,-13%[1.6 µM],.
O=C(COc1ccc(Cl)cc1)OCC(=O)N1CCCC1,9%,>57
Cc1cc2nnc(SCC(=O)N3C(C)CCCC3C)n2c(N)n1 (centres undefined),6%,>57
Cc1cnc(-c2nnc(N(C)C(=O)c3cccnc3)s2)cn1,13%,>57
COc1ccc(NC(=O)CSc2nc3c(c(=O)n2-c2ccc(F)cc2)SCC3)cc1,12%,>57
CCc1nnc(NC(=O)CSc2nnc(Cc3ccccc3)n2-c2ccc(OC)cc2)s1,-4%,>57
CCOC(=O)c1cc(=O)cc(C(=O)OCC)o1,3%,>57
Cc1cccc(NC(=O)c2cnc3sccn3c2=O)c1,-1%,>57
Cc1cc(NC(=O)CSc2ccc(Cl)cc2)no1,?,>57
CCN(CC)C(=O)C1CCCN(C(=O)Nc2ccc3nsnc3c2)C1 (centres undefined),4%,.
O=C(CCCn1c(=S)[nH]c2ccccc2c1=O)N1CCOCC1,7%,>57
CCOC(=O)N1CCN(Cc2ccccc2Cl)CC1,0%,>57
O=C(COc1ccc2c3c(c(=O)oc2c1)CCC3)NC1CCCCC1,-6%,>57
COC(=O)c1ccc(CSc2nccn2C)cc1,.,>57
N#Cc1nc(-c2ccccc2F)oc1N1CCCC1,4%,>57
CCc1ccccc1-n1c(SCC(=O)N2CCCC2)nnc1-c1ccccn1,?,>57
COc1cc2c3c(c1)C1(C(=O)N3C(C)(C)C=C2C)C(C#N)=C(N)Oc2cc(O)ccc21 (centres undefined),-6%,>57
COc1ccc2[nH]c(C(=O)O)c(CCNC(C)=O)c2c1,12%,>57
O=C(O)c1ccc(Br)c(S(=O)(=O)N2CCCC2)c1,3%,>57
CCOc1cc(C2C(C(=O)N3CCCCC3)=C(C)NC3=C2C(=O)CC(C)(C)C3)ccc1O (centres undefined),-1%,>57
COc1cccc(CN2CCN(C(=O)CC(C)C)CC2)c1,3%,.
COc1cc(CN2CCN(c3cccc(C)c3C)CC2)cc(OC)c1O,-12%,>57
COc1ccc(OCCCN2CCCC(C)C2)cc1 (centres undefined),-4%,>57
CC1(C)Cc2ccccc2C(N)=C1C#N,-10%,.
CCCC(=O)c1ccc(N2CCN(S(=O)(=O)c3ccc(C)cc3)CC2)c(F)c1,-1%,>57
COc1ccc2nc3oc(C(=O)NC4CCN(Cc5ccccc5)CC4)cc3cc2c1,-5%,>57
CCOCCCNC(=O)CCS(=O)(=O)Cc1ccc(C)cc1,11%,>57
O=C(NC(Cc1ccccc1)c1nc2ccccc2[nH]1)C1CC(=O)N(c2ccc3c(c2)OCCO3)C1 (centres undefined),-2%,>57
CN(C)c1ccc(-c2nccc(Nc3ccc(F)cc3)n2)cc1,?,>57
COC(=O)[C@@]1(Cc2ccccc2)[C@H]2c3cc(C(=O)N4CCCC4)n(Cc4cccc5ccccc45)c3C[C@H]2CN1C(=O)c1ccccc1,1%,>57
CS(=O)(=O)Nc1ccc(S(=O)(=O)Nc2nccs2)cc1,-5%,>57
Cc1ccc2c(c1)C(C)(C)[C@]1(C)NC(=O)CCN21,-7%,>57
Cc1cc(C)c(C)c(OCCOCCN2CCOCC2)c1,-16%,.
COc1ccc(OC)c(N(CC(=O)Nc2ccc3c(c2)OCCO3)S(C)(=O)=O)c1,17%,.
O=C(c1ccccc1)c1ccc2nc[nH]c2c1,-2%,>57
O=C1c2cccnc2C(O)N1C1CCCCC1 (centres undefined),-15%,>57
CCOc1ccccc1C(=O)Nn1c(C2CCC2)nc2ccccc2c1=O,-11%,>57
Cc1cccc(NC(=O)COc2ccc(Br)cc2)n1,-15%,.
O=C(N[C@@H](c1ccccc1)[C@@H]1C[C@H]1C(=O)NCc1ccccn1)OCc1ccccc1,9%,>11
COc1cccc(-c2nc(NCc3cccs3)c3ccccc3n2)c1,?,>57
COc1ccc(Cl)c(NCCC(=O)O)c1,12%,>57
Cc1noc(C)c1-c1nc(N(C)Cc2ccco2)c2ccccc2n1,?,>57
Cc1noc(C)c1S(=O)(=O)Nc1ccc(C(=O)NC2CCCCCC2)cc1,-7%,>57
O=C(NCc1ccccc1)NC1(C(=O)N2CCOCC2)CCCCC1,13%,>57
CCCc1cc2c(n1Cc1ccc(OC)cc1)C(C)C1CN(C(=O)c3ccccc3)C(C)(C(=O)OC)C21 (centres undefined),4%,>57
CC1(C)C(=O)OC(c2c(F)c(F)c(F)c(F)c2F)C2(CCCCC2)C1=O (centres undefined),10%,>57
O=C(O)CSc1nnc(Cn2nnc3ccccc32)n1CCc1ccccc1,6%,>57

# An excerpt of these results, with two lines to a compound.
# Below each compound: Anthrax LT inh	SmPrx2 inh
CC1(C)C(=O)OC(c2c(F)c(F)c(F)c(F)c2F)C2(CCCCC2)C1=O (centres undefined)
 : 10%	>57
O=C(O)CSc1nnc(Cn2nnc3ccccc32)n1CCc1ccccc1
 : 6%	>57
